Screens deposited in PubChem by National Center for Advancing Translational Sciences (NCATS).
GLA inh pH 4.5: inhibitors of human alpha-galactosidase A at pH 4.5. purified enzyme, 4-MU-alpha-Gal fluorescence, pH 4.5. activity change, negative = inhibition, % at 105 µM. 230,000 tested, under 10 active. AID 1467; inconclusive = small, poorly fitted or top-dose-only inhibition, or a rising curve; inactive = flat fitted curve, though single readings scatter; no compound was filed as active;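 further: 0% = full activity with enzyme and -100% = basal without enzyme; dose as in the result columns while the protocol names 77 µM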
miR-21 FLuc: raises the signal of a miR-21 reporter; HeLa miR-21 FLuc reporter, luciferase, 48 h; Potency, µM (highest dose often 38.3 µM), without a hit: at the highest dose reporter change, positive = more light; 340,000 tested, under 10 active; active = well fitted rising curve with a large enough effect; inconclusive = small, poorly fitted or top-dose-only effect; inactive = no such curve, though single readings can be large or run the other way;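 further: % of control where 0% means no effect; miR-21 action dims this reporter so a rising signal means less miR-21 action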
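Using DMEM plus 10% FBS, HeLa miR-21-FLuc cells are incubated with test compounds (final up to about 40uM) for 48 hours; firefly luciferase signal is then imaged following reagent-mediated lysis.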
Rango-impB inh: prevents formation of the Rango-importin beta complex. 340,000 tested, 0.031% active. Rango CFP/YFP FRET sensor + importin beta, 45 min. Potency, µM (top dose mostly 92.2 µM), for inactives: at the top dose inhibition of complex formation. Q14974. AID 540263; active = rising FRET ratio curve, often small or poorly fitted; inconclusive = mostly compound fluorescence or quenching in the first reads; inactive = flat curves in all reads;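 further: potency means the concentration at half of the fitted maximal effect; 0% = DMSO wells and 100% = buffer wells lacking importin beta; nearly all actives have a fitted effect of over 15% in size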
Target sequence (Q14974 whole entry, looked up): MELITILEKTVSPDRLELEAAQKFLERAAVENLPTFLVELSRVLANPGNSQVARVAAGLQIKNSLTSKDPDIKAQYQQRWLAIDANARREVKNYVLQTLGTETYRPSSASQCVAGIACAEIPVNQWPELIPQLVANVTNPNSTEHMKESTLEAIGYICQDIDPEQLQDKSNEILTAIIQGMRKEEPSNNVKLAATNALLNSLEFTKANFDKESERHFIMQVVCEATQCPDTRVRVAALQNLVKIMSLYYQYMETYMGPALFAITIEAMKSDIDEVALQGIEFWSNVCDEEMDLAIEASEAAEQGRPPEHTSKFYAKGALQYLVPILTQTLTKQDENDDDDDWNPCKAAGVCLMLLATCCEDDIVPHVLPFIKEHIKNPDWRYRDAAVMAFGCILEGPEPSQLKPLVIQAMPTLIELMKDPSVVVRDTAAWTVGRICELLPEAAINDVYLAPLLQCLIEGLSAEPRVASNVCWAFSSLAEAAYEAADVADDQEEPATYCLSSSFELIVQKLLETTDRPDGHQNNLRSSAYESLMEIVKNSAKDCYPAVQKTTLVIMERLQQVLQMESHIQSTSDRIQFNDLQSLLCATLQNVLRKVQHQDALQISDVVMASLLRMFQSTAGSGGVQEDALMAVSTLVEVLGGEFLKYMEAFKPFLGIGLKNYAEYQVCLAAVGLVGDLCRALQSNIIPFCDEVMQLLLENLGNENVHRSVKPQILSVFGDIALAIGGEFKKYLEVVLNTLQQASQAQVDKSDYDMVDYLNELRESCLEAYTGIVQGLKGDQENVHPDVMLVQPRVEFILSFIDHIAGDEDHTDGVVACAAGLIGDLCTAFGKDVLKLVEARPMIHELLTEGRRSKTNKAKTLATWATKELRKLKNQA
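FRET biosensor (snurportin 1 IBB flanked by EYFP and cerulean), 50 nM, with compound 5 min, then 0.125 microM importin beta in PBS, 1 mM DTT, 0.02% Tween-20, 0.1% BSA. CFP/YFP ratio read after 45 min at room temperature; pre-read flags interference.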
Rango release inh: prevents RanGTP from dissociating the Rango-importin beta complex; 340,000 tested, 0.071% active; Biochemical FRET Rango-importin beta, RanGTP-induced dissociation; O95149+P62826; Potency, µM (titrated, usually from 46.1 µM), for inactives: at the highest dose activity change, negative = inhibition; active means falling FRET ratio curve, often poorly fitted, with flat reads before Ran was added; inconclusive means other falling curves, or compound fluorescence or quenching; inactive means flat or rising ratio curve;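 further: potency means the concentration at half of the fitted maximal effect; % of control where 0% means no effect; nearly all actives have a fitted effect of over 45% in size; -100% = wells without RanGTP and RCC1; the record marks most hits as doubtful in a second field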
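FRET read at 45 min, room temperature: inhibitors block the CFP/YFP signal rise when RanGTP (0.6 uM Ran, 2 mM GTP, 0.2 uM RCC1) frees Rango (0.1 uM) from importin beta (0.25 uM). Pre-read after 5 min compound exposure flags interference.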
The depositor's hits bear a star; ? = inconclusive; . = not tested or not shown; & = joins results of further samples. Some of the compounds tested; count on the stated rates, not on these rows.

SMILES	GLA inh pH 4.5	miR-21 FLuc	Rango-impB inh	Rango release inh
O=C(CCC(=O)Nc1ccccc1)NNC(=O)COc1ccccc1	0	-2%	?	7%
CCCc1[nH][nH]c(=O)c1C(c1ccc(Br)cc1)C(C#N)C#N (stereo not given)	-5	-4%	-3.1%	-11%
COc1ccc(C(=O)OCC2CC(c3ccccc3)N(C)O2)cc1 (stereo not given)	-21	-4%	-2.5%	-6%
COc1ccccc1Nc1nn2c(=O)c3ccc(C(=O)N4CCCCC4)cc3nc2s1	.	3%&11%	-3.8%	-2%
COc1cccc(C2=CC(c3ccc(N(C)C)cc3)n3nnnc3N2)c1 (stereo not given)	1	2%	?	?
CN1CCc2c(sc(NC(=O)c3ccc(S(=O)(=O)N4CCc5ccccc54)cc3)c2C(N)=O)C1	-4	0%	.	.
COc1ccc(-n2c(=O)c3c4c(sc3n3c(=S)[nH]nc23)CCC4)cc1	-1	-4%	-1.3%	2%
CCN1C(=O)[C@H]2[C@H]3CN=C(SCc4ccc(Cl)cc4)N3[C@@](Cc3ccccc3)(C(=O)OC)[C@H]2C1=O	.	.	0.6%	0%
COc1ccc(C(C)=O)cc1CSc1nnc(-c2ccncc2)n1C	-2	-2%	-0.7%	-12%
CC(=O)c1ccccc1NC(=O)COC(=O)/C(=C/c1ccccc1)n1nnnc1C	.	27%	6.0%	2%
Cc1cc2ncn(N)c2cc1C	4	-9%	4.1%	0%
Cc1occc1C(=O)Nc1cccc2ccccc12	-24	-52%	3.1%	15%
CCC(=O)N1N=C(c2ccc(Cl)cc2)CC1c1ccco1 (stereo not given)	0	-22%	-0.9%	7%
CS(=O)(=O)N(CC(=O)N1CCC(C(N)=O)CC1)C1CCCCC1	5	2%	3.0%	14%
CCOC(=O)CSc1nc2ccc(NC(C)=O)cc2s1	0	-3%	3.3%	16%
CS(=O)(=O)N1CCN(c2nc(-c3ccccc3)cs2)CC1	-2	-37%	3.0%	6%
O=C(CSC(=S)N1CCCCC1)Nc1ncc2c(n1)CCCC2=O	0	-5%	0.0%	1%
O=C(Oc1cncc(Cl)c1)c1ccco1	4	-6%	?	-5%
COc1cccc(NC(=O)CN(C)C(=O)c2ccc3ccccc3c2)c1	-17	-6%	1.6%	-23%
CCC(C)Sc1nnc(Cc2cc(=O)[nH]c(=O)[nH]2)n1-c1ccc(OC)cc1 (stereo not given)	-15	-1%	-2.9%	-6%
O=S(=O)(Nc1ccc(N2CCOCC2)cc1)c1ccc(F)cc1	5	-4%	3.4%	1%
O=C(COC(=O)CCc1nc2ccccc2s1)NC(=O)NCc1ccco1	6	-1%	2.4%	-20%
CC(C)(C)S(=O)(=O)c1ccccc1-c1noc(-c2ccccc2)c1C(N)=O	.	.	-1.1%	-10%
O=C(/C=C/c1ccccc1[N+](=O)[O-])OCC(=O)c1ccccc1	3	-4%	-1.8%	27%
CC(C)Sc1sc(C(=O)O)c(-c2ccc(Cl)cc2)c1C#N	5	-4%	6.9%	-14%
Cc1cc(C)n2nc(SCC(=O)Nc3ccc(O)cc3)nc2n1	.	-3%&-4%	-0.1%	23%
CC(C)(C)c1ccc(C(=O)Cn2cnnc2C#N)cc1	.	-15%	-3.5%	-10%
Cc1ccccc1Cn1ccc(NC(=O)c2onc(C)c2Cl)n1	3	-24%	2.0%	9%
Cc1ccc(/C=N/NC(=O)Cn2cnc3ccccc32)o1	-4	-5%	1.9%	-9%
COC(=O)c1scc(C)c1NC(=O)c1cccc(C#N)c1	.	-5%	2.8%	5%
Cc1ccc(C(=O)N2CCc3ccccc32)cc1NC(=O)c1ccco1	-2	-5%	1.4%	0%
COc1ccc(C(=O)N(Cc2ccco2)Cc2cc3cc(C)ccc3[nH]c2=O)cc1OC	.	.	-0.2%	1%
CCn1cc(C(=O)N2CCN(c3ccccn3)CC2)c2cc(OC)c(OC)cc2c1=O	0	-1%	-3.0%	0%
O=C(O)CS(=O)(=O)CC(=O)O	5	-1%	8.1%	-9%
CCc1ccc(OCC(=O)NC(NC(=S)Nc2ccc(Cl)cc2)C(Cl)(Cl)Cl)cc1 (stereo not given)	2	25%	-1.6%	0%
COC(=O)c1c(NC(=O)c2ccc(C)cc2)csc1C	-24	-19%	-3.6%	-16%
CCOc1ccc(C(c2c(C)n(C)n(-c3ccccc3)c2=O)c2c(C)n(C)n(-c3ccccc3)c2=O)c(O)c1	.	.	1.2%	2%
O=C(O)c1ccc(CNCc2cccc(OCc3ccc(F)cc3)c2)cc1	.	-6%	0.9%	-1%
CCOc1ccc(N(CC)C(=O)Cc2c(C(=O)O)n(C)c3ccccc23)cc1	.	2%	?	-23%
CCOc1ccc(N(CC(=O)N2CCN(Cc3ccccc3)CC2)S(C)(=O)=O)cc1	.	3%	1.6%	-3%
Cc1cc2c3ccccc3ncn2n1	11	-4%	-0.4%	17%
CC/C(CC(C)(C)c1ccccc1)=N\O	-16	1%	4.2%	-6%
CCN(C(=O)COc1ccc(F)cc1Br)c1c(N)n(Cc2ccccc2)c(=O)[nH]c1=O	.	.	-0.3%	2%
O=C(CSc1nnnn1Cc1ccccc1)NCCc1ccccc1	-7	-4%	-1.9%	-10%
O=C(CNC(=O)c1nc[nH]c1C(=O)NCC(=O)OCc1ccccc1)OCc1ccccc1	.	-1%	2.9%	1%
COc1ccc([N+](=O)[O-])cc1NC(=O)/C=C/C(=O)O	3	-5%	-1.0%	3%
Cc1ccc(S(=O)(=O)NCC(=O)OCc2nnc(-c3ccccc3)o2)cc1C	1	-13%	0.3%	1%
CCCCOC(=O)N1CCOCCOCCOCC1	-16	-2%	-1.9%	-14%
COc1ccc(-c2cc(CCCC(=O)NCCc3ccccc3)no2)cc1	-1	-26%	-4.1%	12%
Cc1cc(NS(=O)(=O)c2ccc(N3C(=O)C4C5C=CC(C5)C4C3=O)cc2)nc(C)n1 (stereo not given)	6	3%	2.3%	22%
COc1cccc(-c2cc(C(=O)NCCCn3ccnc3)c3ccccc3n2)c1	-8	0%	-1.4%	20%
COc1ccc(OCCSc2ncccn2)cc1	-2	-39%	3.0%	-12%
O=C(CCC1CCCCC1)Nc1cc(Cl)ccc1N1CCOCC1	.	.	1.4%	-4%
O=C(O)/C=C/C(=O)Nc1ccc(Cc2ccc(NC(=O)/C=C/C(=O)O)cc2)cc1	-2	0%	-1.7%	0%
Nc1nc(-c2ccc3ccccc3c2)c(C2(O)C(=O)Nc3c(Br)cc(F)cc32)s1 (stereo not given)	5	3%	-0.2%	-4%
COc1ccc(N2CC(C(=O)Nc3nnc(SCC(=O)N4CCOCC4)s3)CC2=O)cc1 (stereo not given)	.	-2%	-2.4%	-5%
Cc1ccc(C)c(N2CCN(C(=S)Nc3ccc4nc(N5CCN(C)CC5)cc(C)c4c3)CC2)c1	-6	-1%	-3.8%	-10%
Cc1cccn2c(=O)c3cc(C(=O)NCc4cccnc4)c(=N)n(CC4CCCO4)c3nc12 (stereo not given)	.	-1%	?	?
CCCN(CCC)CC(C)(C)NS(=O)(=O)c1ccc(Cl)cc1	-17	-3%	-1.9%	-14%
CCN(CC)S(=O)(=O)c1ccc(N2CCOCC2)c(NC(=O)c2cccc(C#N)c2)c1	3	-2%	-1.8%	-9%

For convenience, part of the list above.
SMILES	GLA inh pH 4.5	miR-21 FLuc	Rango-impB inh	Rango release inh
Cc1cccn2c(=O)c3cc(C(=O)NCc4cccnc4)c(=N)n(CC4CCCO4)c3nc12 (stereo not given)	.	-1%	?	?
CCCN(CCC)CC(C)(C)NS(=O)(=O)c1ccc(Cl)cc1	-17	-3%	-1.9%	-14%
CCN(CC)S(=O)(=O)c1ccc(N2CCOCC2)c(NC(=O)c2cccc(C#N)c2)c1	3	-2%	-1.8%	-9%

Following part
SMILES	GLA inh pH 4.5	miR-21 FLuc	Rango-impB inh	Rango release inh
CC(C)CC(=O)Nc1ccc(-c2nc3ccccc3c(=O)o2)cc1	0	12%	5.0%	1%
O=C(NC1CC1)C1=C[C@@H](C2CC2)C[C@@H](OCc2ccc(CO)cc2)O1	-17	1%	-0.9%	0%
CC(=O)c1n[nH]nc1Nc1nc(C)cc(C)n1	9	-2%	-1.9%	0%
CCc1cc[n+](/C(C(=S)Nc2cccc(C)c2)=C(/[O-])c2ccc(C)c([N+](=O)[O-])c2)cc1	-3	-12%	-0.1%	10%
CCOc1cccc(CN2CCCC(C(=O)Nc3cccc(-n4cccn4)c3)C2)c1 (stereo not given)	.	11%	-3.4%	-4%
COc1cccc(C(Nc2ccccn2)c2c(NC(=O)c3ccco3)sc(C)c2C)c1 (stereo not given)	-6	-2%	-3.2%	-14%
CCOC(=O)c1ccccc1NC(=O)CSc1nnnn1C	-1	-1%	-0.1%	1%
Cc1c(C)n(C)c2ccc([N+](=O)[O-])cc12	8	-18%	-0.8%	7%
CCN1C[C@@H]2[C@@H]3C(=O)N(Cc4ccccc4)C(=O)[C@@H]3[C@](C)(C1=O)N2C(=O)c1ccccc1	.	.	4.4%	10%
CCOC(=O)Cc1csc(NC(=O)CSc2nnnn2-c2ccc(F)cc2)n1	-4	-1%	9.8%	3%
O=C(CNC(=O)C1CCCCC1)OC(C(=O)c1ccccc1)c1ccccc1 (stereo not given)	.	.	-0.9%	-13%
Brc1cc2c(cc1CN1CCc3ccccc3C1)OCO2	.	-3%	7.5%	0%
Cc1ccccc1OCC(=O)Nc1cccc(N(C)S(C)(=O)=O)c1	-1	-22%	?	8%

Arranged by SMILES length (largest number first): part of the list above
SMILES	GLA inh pH 4.5	miR-21 FLuc	Rango-impB inh	Rango release inh
CCN1C(=O)[C@H]2[C@H]3CN=C(SCc4ccc(Cl)cc4)N3[C@@](Cc3ccccc3)(C(=O)OC)[C@H]2C1=O	.	.	0.6%	0%
CCN1C[C@@H]2[C@@H]3C(=O)N(Cc4ccccc4)C(=O)[C@@H]3[C@](C)(C1=O)N2C(=O)c1ccccc1	.	.	4.4%	10%
CCOc1ccc(C(c2c(C)n(C)n(-c3ccccc3)c2=O)c2c(C)n(C)n(-c3ccccc3)c2=O)c(O)c1	.	.	1.2%	2%
CCN(C(=O)COc1ccc(F)cc1Br)c1c(N)n(Cc2ccccc2)c(=O)[nH]c1=O	.	.	-0.3%	2%
COc1ccc(C(=O)N(Cc2ccco2)Cc2cc3cc(C)ccc3[nH]c2=O)cc1OC	.	.	-0.2%	1%
CCC(C)Sc1nnc(Cc2cc(=O)[nH]c(=O)[nH]2)n1-c1ccc(OC)cc1 (stereo not given)	-15	-1%	-2.9%	-6%
CC(=O)c1ccccc1NC(=O)COC(=O)/C(=C/c1ccccc1)n1nnnc1C	.	27%	6.0%	2%
COc1ccc(-n2c(=O)c3c4c(sc3n3c(=S)[nH]nc23)CCC4)cc1	-1	-4%	-1.3%	2%
Cc1ccc(S(=O)(=O)NCC(=O)OCc2nnc(-c3ccccc3)o2)cc1C	1	-13%	0.3%	1%
CCOC(=O)Cc1csc(NC(=O)CSc2nnnn2-c2ccc(F)cc2)n1	-4	-1%	9.8%	3%
CCCc1[nH][nH]c(=O)c1C(c1ccc(Br)cc1)C(C#N)C#N (stereo not given)	-5	-4%	-3.1%	-11%
O=C(O)c1ccc(CNCc2cccc(OCc3ccc(F)cc3)c2)cc1	.	-6%	0.9%	-1%
CC(C)CC(=O)Nc1ccc(-c2nc3ccccc3c(=O)o2)cc1	0	12%	5.0%	1%
COc1ccc(C(C)=O)cc1CSc1nnc(-c2ccncc2)n1C	-2	-2%	-0.7%	-12%
COC(=O)c1scc(C)c1NC(=O)c1cccc(C#N)c1	.	-5%	2.8%	5%
CCOC(=O)c1ccccc1NC(=O)CSc1nnnn1C	-1	-1%	-0.1%	1%
CCCCOC(=O)N1CCOCCOCCOCC1	-16	-2%	-1.9%	-14%
Cc1cc2c3ccccc3ncn2n1	11	-4%	-0.4%	17%
